INS promoter inh: TRM-6 insulin promoter activity inhibition. 0.9% of 130,000 active. inhibition, % at 2 µM. TRM-6 cells (human fetal islet line), insulin promoter-eGFP reporter, imaging; reporter expression induced with tamoxifen;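 active = inhibition above the mean plus 3 SD, with well images judged a real hit on visual review, cut at about 60% in these data, passing the limit was not always enough; inconclusive = inhibition over the cutoff but images rejected on review; inactive = inhibition not above the cutoff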
RGS16-Gao HTS: regulators of human RGS16-Galphao interaction. 0.38% of 220,000 active. binding response (% of control), % at 10 µM. O15492+P09471. AID 1441. bead-based flow cytometry RGS16-Galphao binding, fluorescence; actives lie on both sides;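 active = below 25% or above 175%, edge rows of some plates excepted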;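 also: Galphao activated by GDP with aluminum fluoride before binding; 100% = wells without compound and 0% = beads without RGS; some results beyond the cut were filed as inactive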
Target sequence (O15492 whole entry, looked up): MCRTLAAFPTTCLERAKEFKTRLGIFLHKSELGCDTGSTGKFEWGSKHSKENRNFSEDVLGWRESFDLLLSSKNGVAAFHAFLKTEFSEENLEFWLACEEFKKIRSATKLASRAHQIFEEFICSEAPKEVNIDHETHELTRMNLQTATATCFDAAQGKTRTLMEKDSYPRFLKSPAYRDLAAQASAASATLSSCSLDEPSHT
Target sequence (P09471 whole entry, looked up): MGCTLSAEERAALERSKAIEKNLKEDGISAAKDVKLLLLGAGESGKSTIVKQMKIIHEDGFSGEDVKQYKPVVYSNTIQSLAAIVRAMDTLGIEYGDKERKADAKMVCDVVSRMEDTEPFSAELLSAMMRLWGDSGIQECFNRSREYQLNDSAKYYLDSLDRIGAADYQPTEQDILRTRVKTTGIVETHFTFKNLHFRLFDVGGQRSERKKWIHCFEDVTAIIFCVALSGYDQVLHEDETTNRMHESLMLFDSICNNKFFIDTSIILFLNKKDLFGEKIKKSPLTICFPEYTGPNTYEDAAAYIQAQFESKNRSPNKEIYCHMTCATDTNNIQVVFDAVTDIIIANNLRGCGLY
HSV replic up: increases HSV replication in cells; 0.005% of 220,000 active; maximum fold increase; HSV replication augmentation in cells, fold increase;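 active = peak rise of 1.5-fold or more in the series; inconclusive = self-fluorescent or not available for retest; tested in PC3 cells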;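 also: first round at 10 µM; read as green reporter fluorescence; hits show the peak of a series up to 25 µM; 1 = signal of infected wells without compound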
GALR2 agonist: agonists of human galanin receptor 2 (GALR2); 0.48% of 140,000 active; AID 803; GALR2-expressing cells, agonist activation read-out; activation, %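 (tested at 5 µM)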; O43603;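 active = above mean plus 3 SD of all compounds, about 5% in these data, not always enough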;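 also: 0% = vehicle buffer wells and 100% = reference agonist at full effect; tested in CHO reporter cells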
Target sequence (O43603 whole entry, looked up): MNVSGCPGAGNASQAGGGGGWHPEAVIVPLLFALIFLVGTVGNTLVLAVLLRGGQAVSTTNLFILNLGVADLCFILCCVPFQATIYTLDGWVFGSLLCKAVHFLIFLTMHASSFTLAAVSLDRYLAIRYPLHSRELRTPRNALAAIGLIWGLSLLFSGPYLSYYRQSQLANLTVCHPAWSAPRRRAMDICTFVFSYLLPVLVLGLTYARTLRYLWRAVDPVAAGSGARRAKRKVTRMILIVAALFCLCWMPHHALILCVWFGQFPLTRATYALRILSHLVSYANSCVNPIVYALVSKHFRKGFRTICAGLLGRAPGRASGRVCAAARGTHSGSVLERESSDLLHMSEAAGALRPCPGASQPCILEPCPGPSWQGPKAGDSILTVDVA
PKD1 kinase inh: PKD1 (human) kinase inhibition | AID 797 | 0.056% of 200,000 active | Q15139 | PKD1 kinase fluorescence polarization assay | inhibition, %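 (about 10 µM by stock and volumes)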;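 active = inhibition of 50% or more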;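 also: controls were vehicle for no effect and a reference inhibitor for full effect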
INS promoter inh cell count: second read-out of INS promoter inh, no call of its own (marks repeat the call); normalized cell count, %; measured here: cell count, toxicity; reference of the scale not given here;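 cells exposed to compound for 48 h; stained nuclei by imaging scaled within each plate; lower means fewer cells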
HSV replic up primary fold: second read-out of HSV replic up, no call of its own (marks repeat the call); fold increase; compound at 10 µM; measured here: primary screen fold increase 10 uM; tested in PC3 cells;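 GFP signal in the first replicate; 1 = infected wells without compound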
The depositor's hits bear a star; i = inactive; u = inconclusive; x = not tested or not shown.

SMILES	INS promoter inh	INS promoter inh cell count	RGS16-Gao HTS	HSV replic up	HSV replic up primary fold	GALR2 agonist	PKD1 kinase inh
Cn1cc(S(=O)(=O)NCc2ccc(Cl)cc2)c(=O)n(C)c1=O	x	x	99	i	1.2	x	x
O=C1CC(c2cccc(Cl)c2)CC(O)=C1C=Nc1ccccc1 (stereo not drawn)	-40	37	111	i	1	0.3	5
Cc1ccc(C(=C2C3C=CC2C2C(=O)NC(=O)C32)c2ccc(C)cc2)cc1 (stereo not drawn)	64	106	122	i	0.84	-0.8	-3
O=C(c1cnccn1)N(c1ccccc1)C1(C(=O)NC2CCCCC2)CCCCC1	21	68	101	i	1.1	-4.8	0
O=C(Nc1ccc(Cl)cc1)c1ccc(OC2CSC2)cc1	36	72	75	i	0.88	x	-12
CN(C)c1ccc(NC(=S)c2ccccn2)cc1	42	95	94	i	1	-1.1	-16
CSc1nccc(-c2c(-c3ccc(Cl)cc3)noc2C)n1	x	x	101	i	1.3	x	x
CCn1c(SCC(=O)NNC(=O)c2ccccc2)nnc1-c1ccco1	23	81	100	i	1	x	-6
CCCCNC(=O)Oc1c(Br)cc2sc(=O)oc2c1Br	x	x	101	i	0.98	x	x
CNC(=O)NC(=O)C(C)Oc1ccccc1F (stereo not drawn)	x	x	100	i	0.94	x	-7
COCCCn1c(SCc2nnc(-c3ccc(OC)c(OC)c3)o2)nc2ccccc2c1=O	-37	162	98	i	0.89	-1.0	-6
CCC(Sc1nc2ccccc2[nH]1)C(=O)Nc1ccc(NC(C)=O)cc1 (stereo not drawn)	x	x	104	i	1	x	2
O=c1[nH][nH]c(-c2ccccc2O)c1C(C[N+](=O)[O-])c1cccc(Cl)c1 (stereo not drawn)	36	148	103	i	1	-0.1	-3
Cc1ccc(/C=c2\sc3n(c2=O)CN(c2cccc(Br)c2)CN=3)o1	-23	79	101	i	1	-0.4	0
CCOC(=O)C1=C(CBr)NC(=O)NC1C (stereo not drawn)	x	x	98	i	1.1	x	-9
Cc1oc(S(=O)(=O)N2CCCCC2)cc1NC(=O)Nc1ccc(F)cc1	x	x	100	i	1.1	x	x
O=C(NCCc1ccccc1)C1CCN(S(=O)(=O)c2cccc3nonc23)CC1	31	112	103	i	0.92	0.8	3
CCOC(=O)c1cc(-c2cccnc2)nn1-c1ccccc1C	56	129	103	i	0.96	x	-4
O=c1[nH]c2ccc(Br)cc2c(-c2ccccc2)c1CN1CCOCC1	x	x	103	i	0.98	-4.1	-11
CCOC(=O)C(=CNc1cc(C)nn1-c1ccc(Cl)cc1)C(=O)OCC	29	105	103	i	1.1	7.1	1
O=C(COc1ccccc1)NCC(=O)NC1CCCCC1	25	100	99	i	0.93	x	8
CC(/C=C/c1ccco1)=N\NC(=O)c1cc(Cl)ccc1O	14	130	108	i	0.94	x	-5
Cc1nc(C)c(Oc2cccc(C(F)(F)F)c2)c(=O)[nH]1	x	x	105	i	1.2	x	x
COc1ccc(/C=N/NC(=S)N[C@H]2CC3CCC2C3)cc1 (stereo partly drawn)	x	x	99	i	0.95	x	x
COc1c2occc2cc2ccc(=O)oc12	21	237	98	i	0.97	-4.0	-6
N#CC1=C(N)NC(=S)C(C(N)=O)C1c1ccccc1F (stereo not drawn)	x	x	101	i	0.92	x	x
Cn1c(=O)c([N+](=O)[O-])c(N2CCSCC2)c2ccccc21	x	x	102	i	0.98	x	x
Cc1cc2n(n1)C(c1cn(-c3ccccc3)nc1C)Nc1c(C)cccc1-2 (stereo not drawn)	69	146	117	i	0.85	0.0	-3
O=Cc1ccc(N2CCCC2)c([N+](=O)[O-])c1	-89	78	132	i	0.89	x	-6
CCN(CC)S(=O)(=O)c1ccc(-c2nnc(SCc3nnc(-c4ccccc4)o3)o2)cc1	x	x	94	i	0.69	-2.7	-4
COc1cc(/C(C)=N/NC(=O)CN2CCN(S(=O)(=O)c3ccc(C)cc3)CC2)ccc1O	x	x	89	i	0.97	x	x
Brc1ccc(-c2nnc3sc(CNCc4ccc5c(c4)OCO5)cn23)cc1	x	x	100	i	0.97	-1.6	-5
CCc1cc(=O)oc2cc(C)c(CN3CCCC(C)C3)c(O)c12 (stereo not drawn)	-4	100	101	i	1.2	-2.3	-2
CC(C)CC(c1nnnn1Cc1ccccc1)N1CCN(C(=O)c2ccco2)CC1 (stereo not drawn)	-36	61	101	i	0.88	-2.8	-5
O=C(CN1C(=O)c2ccccc2C1=O)NCCc1c[nH]c2ccccc12	5	153	101	i	0.87	-0.1	-16
COc1cc2nc(SCC(=O)NC3CC3)n(CCC3=CCCCC3)c(=O)c2cc1OC	56	145	x	x	x	-1.7	-5
O=c1cc(-c2ccccc2)[nH][nH]1	39	133	107	x	x	-0.4	0
Oc1ccc(/C=N/Nc2nc(-c3ccccc3F)nc3ccccc23)c(O)c1	x	x	105	i	0.8	x	x
Cc1cc(N2C(=O)C3C4C=CC(C4)C3C2=O)no1 (stereo not drawn)	-94	50	113	i	0.72	-4.7	-15
COc1cccc(NC2c3ccccc3C(=O)N2Cc2ccccc2Cl)c1 (stereo not drawn)	x	x	109	i	0.95	x	x

Among those listed so far, these have a nitro group on carbon.
SMILES	INS promoter inh	INS promoter inh cell count	RGS16-Gao HTS	HSV replic up	HSV replic up primary fold	GALR2 agonist	PKD1 kinase inh
O=c1[nH][nH]c(-c2ccccc2O)c1C(C[N+](=O)[O-])c1cccc(Cl)c1 (stereo not drawn)	36	148	103	i	1	-0.1	-3
Cn1c(=O)c([N+](=O)[O-])c(N2CCSCC2)c2ccccc21	x	x	102	i	0.98	x	x
O=Cc1ccc(N2CCCC2)c([N+](=O)[O-])c1	-89	78	132	i	0.89	x	-6

Carrying on:
SMILES	INS promoter inh	INS promoter inh cell count	RGS16-Gao HTS	HSV replic up	HSV replic up primary fold	GALR2 agonist	PKD1 kinase inh
N#CC(=C1SC=CS1)c1nc(-c2ccccc2)cs1	x	x	104	i	1.3	-3.1	-4
C=CCn1c(SCc2cc(=O)n3ccsc3n2)nc2cc(Cl)ccc2c1=O	-50	102	45	i	1	x	-9
COc1ccc(C)cc1NC(=O)c1ccc(NC(=O)CC2SC(N3CCCC3)=NC2=O)cc1 (stereo not drawn)	x	x	100	i	1	-0.5	4
c1ccc(-c2cn(-c3ccccc3)c3[n+]2CCS3)cc1	0	70	89	i	0.98	x	-2
CCC(C)NC(=O)C1c2ccccc2Oc2ccccc21 (stereo not drawn)	x	x	103	i	1.2	x	x
CC(c1ccncn1)N(C)Cc1nc(-c2ccc(C(F)(F)F)cc2)no1 (stereo not drawn)	x	x	101	i	0.99	x	2
CC(OC(=O)CNC(=O)c1ccco1)C(=O)N(C)c1ccccc1 (stereo not drawn)	x	x	103	i	1	x	2
NC(=O)C1CCN(Cc2nnnn2Cc2ccco2)CC1	x	x	100	i	0.96	-1.1	-9
COc1cccc(CNC(=O)CCCCCn2c(=S)[nH]c3ccc(N4CCOCC4)cc3c2=O)c1	-20	77	99	i	0.97	-0.2	-2
COc1cc(N=Cc2c(O)[nH]c3ccccc23)cc(OC)c1OC	x	x	49	i	0.81	-1.2	4
CCN(CC)S(=O)(=O)c1cccc(NC2=NCCCCC2)c1	x	x	101	i	1.1	x	x
CC(O)CNCCNCc1c(OCc2ccccc2)ccc2ccccc12 (stereo not drawn)	-110	111	98	i	0.79	0.1	7
Cc1cc(NC(=O)c2ccc(C)c([N+](=O)[O-])c2)no1	-80	54	101	i	0.88	x	-4
O=S(=O)(N/N=C/c1ccccc1F)c1ccccc1	x	x	11*	i	0.9	x	-2
COc1ccc(-c2nn(-c3ccccc3)cc2/C=C/C(=O)OCC(=O)Nc2ccccc2C#N)cc1	-100	49	100	i	0.6	x	1
CC(C)Cn1c(Br)nc2c1c(=O)n(CCC#N)c(=O)n2C	x	x	90	i	1.1	-2.2	-3
Cc1ccc(NC(=O)C(C)C(=O)Nc2ccc(C)cc2)cc1	33	110	102	i	0.9	x	-3
COc1ccc(NC(=O)C(Br)C(C)C)cc1 (stereo not drawn)	64	157	101	i	0.98	x	1
O=C(O)CSc1c2c(nc3cc(C(=O)N4CCOCC4)ccc13)CCCC2	-19	91	102	i	1.1	-1.1	-8
c1cc(C(c2nnnn2C2CCCC2)N2CCOCC2)ccn1 (stereo not drawn)	-45	121	111	i	0.96	0.2	0
CCOC(=O)c1sc(N(Cc2ccccc2)C(=O)CN2C(=O)CN(C)C2=O)nc1C	-107	135	111	i	0.92	-1.8	-18
COc1ccc(NC(=O)COC(=O)c2cccc(S(=O)(=O)N(C)C)c2)cc1	-35	106	99	i	0.96	x	10
COc1ccc(-c2nn(-c3ccccc3)cc2C(=O)NC(=S)Nc2cc(Cl)ccc2Cl)cc1	x	x	96	i	0.96	x	x
COc1cc(-c2cc3nc4ccccc4n3c(N)c2C#N)cc(OC)c1OC	x	x	103	i	0.82	x	x
Cc1nn(C(=O)N2CCOCC2)c(C)c1C	19	105	x	i	0.9	-0.6	-4
CCCc1cc(Nc2cccc(OC)c2)n2ncnc2n1	8	82	102	i	0.97	-2.9	-4
O=C(CN(Cc1ccccc1)S(=O)(=O)c1ccccc1)NC1CC1	-30	111	107	i	0.85	-2.0	-6
Cc1ccccc1CN1C(=O)C(C)S/C1=N/N=C/c1ccco1 (stereo not drawn)	x	x	94	i	0.95	x	x
COc1ccc(S(=O)(=O)N2CCC(C(=O)N3CCOCC3)CC2)cc1Cl	x	x	98	i	0.82	x	-6
COc1cc(/C=N/Nc2nc3ccccc3s2)ccc1O	x	x	105	i	0.81	x	x
COc1cc(CNCCO)ccc1OCC(=O)Nc1ccc(Br)cc1	-18	87	106	i	1.1	0.0	-4
Cn1c(=O)c(C(=O)Nc2ccccc2S(N)(=O)=O)c(O)c2ccccc21	x	x	98	i	1	x	x
COc1cc(N2CCCC2)c(OC)cc1/C=C(/C#N)c1ccc(Br)cc1	-87	111	170	u	x	-3.2	1
COc1nc(-c2ccccc2)nc(C)c1CC(=O)O	x	x	98	i	0.99	x	-2
N#Cc1ccccc1Cn1c(-c2cscn2)nc2ccccc21	x	x	103	i	0.95	-1.1	11
COCCCn1c(SCC(=O)OC2CCCCC2)nnc1-c1ccco1	x	x	98	i	0.88	-2.0	-9
CCC(=O)Nc1ccc(C(=O)n2ccc(C)n2)cc1	9	118	95	x	x	-2.8	-11
COc1cc(NS(=O)(=O)c2ccc(NC(=S)NC(=O)C3CCCC3)cc2)nc(OC)n1	x	x	89	i	0.95	0.5	-6
OCCNCCCCSc1ccc(Cl)cc1	x	x	104	i	0.9	x	-5
C=CCSc1nnc(NC(=O)c2cn(CC)c3nc(C)ccc3c2=O)s1	x	x	96	i	0.9	x	3
COc1cc(C)c(Cl)cc1S(=O)(=O)N(C)C	32	100	98	i	0.96	-0.7	-4
C=CCC1(NCc2ccco2)CCN(CC)CC1	x	x	106	i	0.91	x	-2
COc1cc(-c2cc(C(=O)Nc3ccc(S(=O)(=O)NCc4ccco4)cc3)c3ccccc3n2)cc(OC)c1OC	-4	90	100	i	0.77	-1.0	-6
CCC(CC)C(=O)NCc1ccc(OC)cc1	-71	51	104	i	0.97	x	0
CC(C)NS(=O)(=O)c1ccc(NC(=O)C2CCCCC2)cc1	0	131	97	i	0.88	-0.7	-4
O=C(OCn1ncc(Cl)c(Cl)c1=O)c1ccc(C(F)(F)F)cc1	-36	127	92	i	0.64	-3.5	1
CC1CC(C)(C)NC(=S)N1CCC(=O)NCc1ccc(F)cc1 (stereo not drawn)	x	x	100	i	0.98	x	6
Cn1cccc1/C=N/NC(=O)c1ccco1	-16	103	99	i	1.1	x	7
COC(=O)c1[nH]c(C)c(/C(O)=C2\C(=O)C(=O)N(CCN(C)C)C2c2cc(OC)ccc2OC)c1C (stereo not drawn)	-27	99	108	i	0.88	-2.1	-8
COc1ccc(CCNC(=O)c2nnn(CC(=O)Nc3ccccc3)c2N)cc1OC	67	174	100	i	1	-0.6	-4

Complete entries as entered above. Order of screens: INS promoter inh	INS promoter inh cell count	RGS16-Gao HTS	HSV replic up	HSV replic up primary fold	GALR2 agonist	PKD1 kinase inh
Results for CC(C)NS(=O)(=O)c1ccc(NC(=O)C2CCCCC2)cc1 = 0	131	97	i	0.88	-0.7	-4
Results for CCC(CC)C(=O)NCc1ccc(OC)cc1 = -71	51	104	i	0.97	x	0
Results for COc1cc(-c2cc(C(=O)Nc3ccc(S(=O)(=O)NCc4ccco4)cc3)c3ccccc3n2)cc(OC)c1OC = -4	90	100	i	0.77	-1.0	-6
Results for COC(=O)c1[nH]c(C)c(/C(O)=C2\C(=O)C(=O)N(CCN(C)C)C2c2cc(OC)ccc2OC)c1C (stereo not drawn) = -27	99	108	i	0.88	-2.1	-8
Results for COc1ccc(CCNC(=O)c2nnn(CC(=O)Nc3ccccc3)c2N)cc1OC = 67	174	100	i	1	-0.6	-4
